KAT2A inh: GCN5L2 (KAT2A) acetyltransferase inhibition. Potency, µM (series often up to 58.9 µM), without a hit: at the highest dose activity change, negative = inhibition, most hits filed as inhibitors. 390,000 compounds, 0.21% hits. Q92830. GCN5L2 HAT assay, ThioGlo1 CoA-SH fluorescence. AID 504327; active = well fitted inhibition curve with a large enough effect; inconclusive = small, poorly fitted or top-dose-only effect, or another doubt; inactive = no such curve, though single readings can be large or run the other way
Target sequence (Q92830 whole entry, looked up): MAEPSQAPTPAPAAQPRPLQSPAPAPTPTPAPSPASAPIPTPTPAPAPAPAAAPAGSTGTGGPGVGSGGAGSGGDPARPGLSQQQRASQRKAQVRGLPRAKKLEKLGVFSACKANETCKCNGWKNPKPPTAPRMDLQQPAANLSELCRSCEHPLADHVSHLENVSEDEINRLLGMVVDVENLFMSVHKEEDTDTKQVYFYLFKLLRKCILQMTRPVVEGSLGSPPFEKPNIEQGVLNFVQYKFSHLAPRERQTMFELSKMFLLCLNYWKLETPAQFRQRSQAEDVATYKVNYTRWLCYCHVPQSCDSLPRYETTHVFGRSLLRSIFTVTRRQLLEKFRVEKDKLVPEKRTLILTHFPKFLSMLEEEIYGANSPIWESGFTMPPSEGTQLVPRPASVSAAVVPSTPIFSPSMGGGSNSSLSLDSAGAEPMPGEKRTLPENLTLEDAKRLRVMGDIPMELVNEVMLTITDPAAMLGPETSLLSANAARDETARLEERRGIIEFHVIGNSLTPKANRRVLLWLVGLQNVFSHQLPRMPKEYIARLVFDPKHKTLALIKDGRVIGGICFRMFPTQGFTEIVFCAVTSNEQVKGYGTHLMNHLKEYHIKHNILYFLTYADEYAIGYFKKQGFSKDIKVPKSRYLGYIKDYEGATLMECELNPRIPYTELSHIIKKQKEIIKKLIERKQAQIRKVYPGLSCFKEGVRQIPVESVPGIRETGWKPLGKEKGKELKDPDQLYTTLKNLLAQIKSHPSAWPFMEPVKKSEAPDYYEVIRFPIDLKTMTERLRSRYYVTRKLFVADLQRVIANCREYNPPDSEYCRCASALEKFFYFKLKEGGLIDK
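GCN5L2 (20nM final) in 50mM HEPES, 0.1mM EDTA pH 7.5, 0.01% Tween-20 was preincubated 15 min at room temperature with compound, then given ThioGlo1 (50uM), H3(1-25) peptide (75uM) and acetyl-CoA (70uM); CoA-thiol fluorescence (Ex340/Em540) was read at 0 and 20 min.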
Starred values were filed as active, the others as inactive; ? = inconclusive; & = joins results of further samples. % is set by controls: 0 for no effect and ±100 for the full control effect; potency is the fitted concentration of half-maximal effect.

| KAT2A inh | SMILES |
| --- | --- |
| 18% | CN(C)CCNC(=O)c1c(CSc2ccccc2)noc1C(=O)NCc1ccccc1 |
| -1% | CCCSc1ccc([C@H]2N[C@@](C)(C(=O)OC)[C@H]3C(=O)N(CC)C(=O)[C@@H]23)cc1 |
| -5% | O=C(OC1CCOC1=O)c1cccc(S(=O)(=O)Nc2ccc(F)cc2)c1 (configuration not stated) |
| -7% | COc1ccc(NC(=O)c2ccc(NCC3CCCO3)c([N+](=O)[O-])c2)cc1 (configuration not stated) |
| -2% | CC(C)(C)NC(=O)c1ccc(COc2ccccc2Br)o1 |
| -3% | Oc1ccccc1CNc1ccc(Br)cn1 |
| -1% | Cc1ccc2c(c1)c(=O)c(S(=O)(=O)c1ccc(F)cc1)cn2CC(=O)Nc1ccc2c(c1)OCO2 |
| -11% | COc1cccc(CNC(=O)CSc2nnc(C)c3c(C)n(-c4ccccc4)nc23)c1OC |
| 3% | COc1cc(C(F)(F)F)c(C(=O)NCc2cccc(Cl)c2)cn1 |
| -6% | O=C(O)c1ccc(Cn2c(SCc3ccc(F)cc3)nc3ccncc32)cc1 |
| -9% | O=C(Nc1ccc(Cl)cc1)Nc1nc(-c2sccc2Br)cs1 |
| -13% | CCc1nc(SCC(=O)N2CCCc3ccccc32)c2oc3ccccc3c2n1 |
| 1% | Cc1sc2nc(C)n(/N=C/c3ccccc3)c(=O)c2c1C |
| 3% | O=C1CC(c2c(F)cccc2Cl)c2c(ccc3ccccc23)N1 (configuration not stated) |
| -7% | COc1cc(C)c(Cl)c(C)c1S(=O)(=O)NCc1cccnc1 |
| -3% | O=C(Cc1ccccc1)NNC(=O)Nc1ccccc1 |
| -10% | Cc1ccc(CS(=O)(=O)CCC(=O)NCCN2CCCCC2C)cc1 (configuration not stated) |
| -3% | C=CCn1c(-c2cccs2)nc2nc3ccccc3nc21 |
| -2% | Cc1ccc(S(=O)(=O)N2CCOCC2)cc1C(=O)Nc1ccccc1N1CCOCC1 |
| -3% | CCOc1ccccc1N1CCN(c2ncnc3scc(-c4ccc(OC)cc4)c23)CC1 |
| -3% | CCn1c(SCC(=O)NCCCN2CCCC2=O)nnc1-c1cccc(C)c1 |
| -4% | O=C1CN(C(=O)COc2ccc(Cl)cc2)C(c2ccc(F)cc2)c2cc(Cl)ccc2N1 (configuration not stated) |
| -3% | COc1ccc(OC)c(NC(=O)CC(=O)Nc2ccc3nc4n(c(=O)c3c2)CCCCC4)c1 |
| 3% | CCn1c(SCC(=O)Nc2nc(C)c(C)s2)nc2cccnc21 |
| -10% | Cc1cccc(NC(=O)c2ccc(C3SCC(=O)N3CCc3ccccc3)cc2)c1C (configuration not stated) |
| -6% | Cc1cccc(C(=O)Nc2ccc(C(=O)Nc3ccc(O)cc3)cc2)c1 |
| -2% | Clc1ccc(CN2CCN(/N=C/c3ccco3)CC2)cc1 |
| -25% | COC(=O)C(C(=O)Nc1cc(C)on1)C1CCCCCC1 (configuration not stated) |
| 14% | O=C(Cn1c(Cc2ccccc2)nc2ccccc21)NCc1ccc2c(c1)OCO2 |
| 3% | CC(C)Cn1c(=O)c2ccccc2n2c(CCC(=O)Nc3ccc(F)cc3)nnc12 |
| -10% | Cc1nc(NCC2CCCO2)nc2c1C(=O)CC(C)(C)C2 (configuration not stated) |
| -6% | O=C(COC(=O)COc1ccccc1)Nc1ccccc1OC(F)F |
| -8% | COc1ccc(S(=O)(=O)N(C)c2ccc(C(=O)Nc3cccnc3)cc2)cc1 |
| -12% | Cc1ccc(OCCNC(=O)/C=C/c2ccc([N+](=O)[O-])cc2)cc1C |
| -23% | CCCNC(=O)c1ccc(COc2ccc(Cl)cc2)o1 |
| -1% | Cc1ccc(S(=O)(=O)N2[C@@H](c3ccccc3)C(C(=O)O)=CC[C@H]2c2cccc(C)c2)cc1 |
| -8% | O=C(NCc1ccccc1)C(c1ccco1)N(C(=O)c1cnccn1)c1ccc(F)cc1 (configuration not stated) |
| -3% | COC(=O)C(NC(=O)c1ccco1)(Nc1ccc(Br)cn1)C(F)(F)F (configuration not stated) |
| 1% | CC(=O)c1ccc(NC(=O)[C@@H]2CCCN2C2=NS(=O)(=O)c3ccccc32)cc1 |
| -12% | CCOC(=O)N1CCc2c(sc3c2C(=O)NC(c2cc(OC)c(O)c(OC)c2)N3)C1 (configuration not stated) |

Laid out differently: entries from further up
Structure	KAT2A inh
Cc1cccc(C(=O)Nc2ccc(C(=O)Nc3ccc(O)cc3)cc2)c1	-6%
COC(=O)C(C(=O)Nc1cc(C)on1)C1CCCCCC1 (configuration not stated)	-25%

Other records.
| KAT2A inh | SMILES |
| --- | --- |
| 1% | Cc1ccc(C)c(OCC(=O)NNC(=O)C2CCC2)c1 |
| 0% | Cc1nc2c([N+](=O)[O-])c(C)c(C)cc2[nH]1 |
| -4% | COc1ccc(NC(=O)C2=C(C)NC(=S)NC2c2ccc(O)c(OC)c2)cc1 (configuration not stated) |
| -9% | O=S(=O)(Nc1ccc(-c2nc3cccnc3s2)cc1)c1ccccc1F |
| 2% | CC(C)NC(=O)c1cc2c(s1)CCCC2 |
| -3% | COc1cccc(CNC(=O)Cn2c(=O)c3cccn3c3ccccc32)c1 |
| -3% | CCOc1cc(C2C3=C(CCCC3=O)N(C)C3=C2C(=O)CCC3)cc(Cl)c1O |
| 2% | COc1ccc(-n2c(Cn3c(=O)sc4ccccc43)nnc2SCC(N)=O)cc1 |
| -17% | CCCCCCNC(=O)c1cccc(-c2ccc(C)c3ccccc23)n1 |
| -2% | COc1ccc(CNc2nnnn2C)cc1 |
| -8% | CC(C)=CC(=O)NCc1c(Cl)cccc1-n1cccc1 |
| -1% | CCOC(=O)c1c(S(=O)(=O)N2CCC(C(=O)NCc3ccccc3Cl)CC2)c(C)n(C)c1C |
| -4% | O=C(NCCN1C(=O)S/C(=C\c2cccnc2)C1=O)c1cccc(OC(F)F)c1 |
| -13% | COc1ccccc1/C=C(/CC(=O)NCc1ccc2c(c1)OCO2)c1nc2ccccc2s1 |
| -5% | O=C(CSc1ccccc1C(=O)O)NCc1ccco1 |
| -28% | CCc1ccc(CNC(=O)c2ccc(OC)c(OC3CCN(C(C)C)CC3)c2)nc1 |
| -1% | COc1ccc2cc(Br)ccc2c1CC(=O)NC(C)(C)C |
| -2% | CN(CP(=O)(O)CCc1ccccc1)S(C)(=O)=O |
| 0% | Fc1ccc(C(c2nnnn2Cc2ccco2)N2CCN(C3CCCCC3)CC2)cc1 (configuration not stated) |
| -2% | COc1nc(-c2ccc(Cl)cc2)nnc1C |
| 1% | O=C(NCCC1CCCCN1S(=O)(=O)c1ccccc1)C(=O)NCCN1CCOCC1 (configuration not stated) |
| -3% | Nc1cc(C(=O)OCC(=O)NNC(=O)c2cccs2)ccc1Cl |
| ? | C=CCNc1nc(NCc2ccccc2)nc(OCC)n1 |
| 25% | COC(=O)c1nc(N)sc1C(C)C |
| -7% | COc1ccc(CN/C=C2\CCCCC2=O)cc1 |
| -13% | CC1=C(C(=O)OCc2ccccc2)C(c2ccc(Cl)cc2)NC(=O)N1C (configuration not stated) |
| -4% | CCCn1c(CCNC(=O)c2ccco2)nc2ccccc21 |
| -3% | Cc1ccc2oc(-c3ccco3)nc2c1 |
| -12% | COc1ccc(N2CCN(C(=O)Cn3nnc(-c4ccccc4N)n3)CC2)cc1 |
| -3% | CCOc1ncccc1C(=O)Nc1ccc(C(=O)Nc2ccc(OC)cc2)cc1 |
| -6% | COc1ccc(N2CCN(C(CNC(=O)C(=O)NCc3ccncc3)c3ccco3)CC2)cc1 (configuration not stated) |
| 0% | Cc1cc(NC(=O)CSc2nccn2-c2ccc(F)cc2)no1 |
| -2% | COc1ccc(C(=O)/C=C/Nc2c(C)n(C)n(-c3ccccc3)c2=O)c(OC)c1 |
| -1% | O=C(NCCCCNC(=O)c1ccc(Br)s1)c1ccc(Br)s1 |
| -14% | Clc1ccc2nc(C3CCN(Cc4ccccc4)CC3)[nH]c2c1 |
| 0% | Cc1ccc2c(c1)-c1c(c(C(=O)NCCc3ccccc3)nn1C)CS2 |
| 11% | COCCCNC(=S)N1CCN(c2nc3ccccc3s2)CC1 |
| -16% | COC(=O)c1ccccc1NC(=O)c1cc(OC)cc(OC)c1 |
| 1% | Cc1ccc(S(=O)(=O)N2CCN(C(=O)c3ccc(-n4cncn4)c([N+](=O)[O-])c3)CC2)cc1C |
| 1% | COc1c(/C=N/Nc2ccc(C(=O)O)cc2)c(CCN(C)C(C)=O)cc2c1OCO2 |
| -14% | CCOC(=O)N1CCN(C(=O)COCc2cc(-c3ccc4c(c3)OCO4)on2)CC1 |
| -4% | CCCCc1ccc(NC(=O)CSc2nnc(C)c(=O)n2N)cc1 |
| -7% | Cc1c(C(=O)NCc2ccco2)oc2ccc(S(=O)(=O)N3CCC4(CC3)OCCO4)cc12 |
| -1% | Cc1ccc(S(=O)(=O)N(C)C)cc1NC(=S)NCc1ccco1 |
| -14% | CCc1ccc(N(CC(=O)N2CCN(Cc3ccccc3)CC2)S(C)(=O)=O)cc1 |
| 2% | CC(=O)NCCn1c(SCc2cc(=O)n3cc(Cl)ccc3n2)nc2ccccc2c1=O |
| 0% | Cn1c(CCN2CCCC2)nc2cc(NS(=O)(=O)c3ccccc3)ccc21 |
| -5% | CCc1ccccc1N(CC)C(=O)c1cc2c(s1)-c1ccccc1SC2 |
| -13% | O=S(=O)(NCCSCc1ccc(Cl)cc1Cl)c1ccc2c(c1)OCCO2 |
| -4% | CCCCC[C@@H]1C=C(C(=O)O)[C@H](c2ccc(C#N)cc2)N1S(=O)(=O)c1ccc(C)cc1 |
| -15% | COC(=O)c1ccccc1NC(=O)NCC1CCCO1 (configuration not stated) |
| -4% | CC(C)(C)OC(=O)N/N=C/c1ccc(N2CCOCC2)s1 |
| 1%&3% | Cc1cccc(N(C)C(=O)c2cc(S(=O)(=O)N3CCCCC3)c[nH]2)c1 |
| -4% | CCOCCn1c(CN(Cc2ccccc2)Cc2ccccc2)nc2c1c(=O)[nH]c(=O)n2C |
| -6% | CCOc1ccc(C(=O)OCCN(C)C)cc1 |
| 1% | CCOC(=O)c1c(NC(=O)N/N=C/c2ccccc2OCC)sc(C(C)=O)c1C |
| -13% | CCOc1ccc(NC(=S)C(C#N)=C2N(C)c3ccccc3N2C)cc1 |
| -3% | CC(C)N=C(NC#N)SCC(=O)NC(C)(C)C |
| -4% | CCSc1nnc(NC(=O)Cc2ccc(OC)cc2)s1 |
| -10% | CC1CCCC(NC(=O)CNC(=S)N(Cc2ccccc2)Cc2cccs2)C1C (configuration not stated) |

(listing goes on)
| KAT2A inh | SMILES |
| --- | --- |
| -1% | COc1cn(-c2ccccc2)nc1C(=O)Nc1ccc(C)cc1 |
| -3% | Cc1cc(C)c(S(=O)(=O)NCCCN2CCOCC2)cc1Br |
| 6% | CCCCN1C(N)=NC[C@H]1Cc1ccc(O)cc1 |
| -10% | COc1cc(C(=O)Nc2cccc(-c3nc4cc(C)ccc4o3)c2C)cc(OC)c1OC |
| -8% | Cc1cc(C(F)(F)F)c2c(N)c(C(=O)NC3CC3)sc2n1 |
| -7% | COc1ccc(C(CNC(=O)C(CCSC)NC(=O)c2ccccc2Cl)N2CCCC2)cc1 (configuration not stated) |
| -2% | Cc1cc(C)c(OCCCCNCc2ccccc2)c(Cl)c1 |
| -2% | CC1(C(=O)NCc2ccc(Cl)c(Cl)c2)Oc2cccnc2NC1=O (configuration not stated) |
| -7% | Cc1cccc(C)c1OC(=O)C(c1ccccc1)c1ccccc1 |
| 0% | CCCCSC1=C(C#N)C(c2ccccc2C)CC(=O)N1 (configuration not stated) |
| 0% | CC(=O)NC(Cc1ccc(F)c(F)c1)C(=O)NC1CCN(c2nnnn2-c2ccccc2)CC1 (configuration not stated) |
| -1% | O=C(c1ccco1)N(Cc1nc2ccccc2c(=O)[nH]1)C1CCCC1 |
| -13% | COc1ccc(OC)c(/C=C/C(=O)N(C)CC(=O)Nc2ccc(N3CCOCC3)cc2)c1 |
| -14% | COCCNC(=O)CCCn1c(=O)c2ccccc2n(CC(=O)NCCC2=CCCCC2)c1=O |
| 1% | COC(=O)NCC(c1cccnc1)N1CCN(c2ccccc2OC)CC1 (configuration not stated) |
| -17% | CCOC(=O)c1cnn2c(C)cc(-c3ccc(F)cc3)nc12 |
| 1% | COC(=O)c1cc(C)sc1NC(=O)CSc1ncccn1 |
| -4% | CCOC(=O)C1=C[C@@]2(CC)CCCN3CCc4c(n1c1ccccc41)C32 (some centres not stated) |
| -5% | COc1ccc(CCNC(=O)Cn2nc(C)c3c(C)n(-c4ccccc4)nc3c2=O)c(OC)c1 |
| 0% | C=CCn1c(SCC(=O)c2cc(C)n(CC3CCCO3)c2C)nnc1-c1ccccc1 (configuration not stated) |

Sorted by value in KAT2A inh (lowest first): 6 of the compounds above
SMILES,KAT2A inh
O=C(COC(=O)COc1ccccc1)Nc1ccccc1OC(F)F,-6%
CC(C)(C)OC(=O)N/N=C/c1ccc(N2CCOCC2)s1,-4%
CCOc1ncccc1C(=O)Nc1ccc(C(=O)Nc2ccc(OC)cc2)cc1,-3%
COc1ccc(C(=O)/C=C/Nc2c(C)n(C)n(-c3ccccc3)c2=O)c(OC)c1,-2%
C=CCn1c(SCC(=O)c2cc(C)n(CC3CCCO3)c2C)nnc1-c1ccccc1 (configuration not stated),0%
COC(=O)NCC(c1cccnc1)N1CCN(c2ccccc2OC)CC1 (configuration not stated),1%

(more compounds)
| KAT2A inh | SMILES |
| --- | --- |
| 2% | CCN(CC)C(=O)c1ccc(S(=O)(=O)c2ccccc2)cc1 |
| -2% | COc1cccc(NC(=O)CN(C)C(=O)c2ccc(S(=O)(=O)Nc3ccccc3C)cc2)c1 |
| -3% | Nc1nc(-c2ccc3c(c2)OCCO3)cs1 |
| 3% | Cc1ccc(C(=O)N2CCN(C3CCCCC3)CC2)s1 |
| -7% | O=C(O)c1ccc(S(=O)(=O)Nc2cccc(CP(=O)(c3ccccc3)c3ccccc3)c2)cc1 |
| 0% | C[C@@H](C(=O)N1CCN(c2ccccc2)CC1)N1C(=O)C2CC=CCC2C1=O (some centres not stated) |
| 0% | CCC(=O)Nc1ccc(C(=O)NNC(=O)c2ccc([N+](=O)[O-])cc2)cc1 |

Only part of the results is shown, and most or all hits are left out here.
